High-throughput results as filed in PubChem.
KCNQ2 pot: KCNQ2 (rat) channel potentiation. CHO-K1 KCNQ2, FluxOR thallium flux fluorescence; active compounds read high. actives 0.54% (n = 310,000). B-score at 10 µM;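 active means fluorescence ratio B-score at least 3 SD of library B-scores, with initial fluorescence B-score within 3 SD, cut at about 5.3 in these data; same plate scores as AID 2156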;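 further: B-score of peak minus minimum over baseline fluorescence ratio after K+ and Tl+ stimulus; positive B-score means potentiation of KCNQ2 with more thallium influx and brighter signal; only the inactives scoring about 0 or higher are listed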
Target sequence (O88943 whole entry, looked up): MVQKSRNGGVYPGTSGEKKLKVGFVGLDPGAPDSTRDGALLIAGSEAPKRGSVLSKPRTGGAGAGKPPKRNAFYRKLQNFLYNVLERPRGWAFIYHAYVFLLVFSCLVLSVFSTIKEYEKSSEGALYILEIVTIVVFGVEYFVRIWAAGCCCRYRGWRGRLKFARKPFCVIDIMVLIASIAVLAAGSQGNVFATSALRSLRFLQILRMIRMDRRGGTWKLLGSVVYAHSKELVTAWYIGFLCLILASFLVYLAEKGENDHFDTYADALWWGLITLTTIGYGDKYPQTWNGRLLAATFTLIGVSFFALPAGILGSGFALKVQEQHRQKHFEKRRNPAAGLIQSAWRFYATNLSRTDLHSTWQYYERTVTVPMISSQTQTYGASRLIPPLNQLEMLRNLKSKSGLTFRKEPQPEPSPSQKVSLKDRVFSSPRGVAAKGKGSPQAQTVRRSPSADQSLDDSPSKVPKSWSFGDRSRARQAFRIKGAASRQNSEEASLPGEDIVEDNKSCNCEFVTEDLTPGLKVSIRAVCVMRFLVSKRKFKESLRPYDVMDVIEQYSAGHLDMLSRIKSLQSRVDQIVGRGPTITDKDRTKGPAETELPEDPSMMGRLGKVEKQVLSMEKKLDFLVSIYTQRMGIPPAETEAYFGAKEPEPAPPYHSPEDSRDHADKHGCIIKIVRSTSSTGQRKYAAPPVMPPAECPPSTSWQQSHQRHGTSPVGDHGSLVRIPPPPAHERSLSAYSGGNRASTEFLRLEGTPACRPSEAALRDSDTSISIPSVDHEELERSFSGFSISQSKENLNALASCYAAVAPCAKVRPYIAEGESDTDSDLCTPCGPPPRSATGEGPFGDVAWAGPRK
KCNQ2 pot baseline: second read-out of KCNQ2 pot, no call of its own (marks repeat the call); B-score; compound at 10 µM; measured here: initial fluorescence intensity artifact check;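 brightness before thallium and not channel activity; 0 = typical well and far values either way flag optical interference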
An asterisk follows results filed as active.

Preview, 19 compounds:
SMILES | KCNQ2 pot | KCNQ2 pot baseline
COc1cccc(/C=C/C(=O)c2c(O)cc(C)oc2=O)c1O | 1.1 | -0.06
O=C(CSc1ccccn1)N/N=C/c1cc([N+](=O)[O-])ccc1O | 1.4 | -0.4
O=C(/C=C/NNC(=O)c1ccccc1)c1ccc([N+](=O)[O-])cc1 | 0.92 | -1.4
COc1cc2nc(Nc3ccc(F)cc3)nc(N)c2cc1OC | 0.07 | -4.3
Cc1ccccc1NC(=O)c1nc2nccc(C)n2n1 | 1.8 | -0.85
O=C(Cn1nc(Cc2ccncc2)c2ccccc2c1=O)Nc1cccnc1Cl | 0.02 | 1.5
CC1=NNC(=O)C1CCC(=O)N/N=C/c1ccc(Cl)cc1Cl (configuration not stated) | 1.4 | -2.1
Cc1nc2ncnn2c(C)c1CCC(=O)N1CC(C)CC(C)C1 (configuration not stated) | 0.07 | -0.08
COc1ccc(NS(=O)(=O)c2coc(C(N)=O)c2)cc1Cl | 0.96 | 0.39
COc1cc(NC(=S)N2CCN(C)CC2)c(OC)cc1Cl | 0.43 | 2.2
O=C(Nc1ccc(Oc2cccnc2)cc1)C1CCN(Cc2ccc(F)cc2)CC1 | 1.1 | -0.53
Cc1ccsc1C(=O)Nc1ccc(F)c([N+](=O)[O-])c1 | 0.52 | 0.78
CCn1c(COc2ccc(=O)n(-c3ccccc3)n2)nnc1SC | 0.54 | -0.21
Cc1ccc(-c2nc(CS(=O)(=O)CC(=O)NCCCN3CCN(C)CC3)c(C)o2)cc1 | 0.75 | 1
O=C(Nc1ccc(S(=O)(=O)N2CCCC2)cc1)c1cc(=O)c2ccccc2o1 | 0.69 | 1.6
O=C(COC(=O)Cc1ccccc1F)Nc1ccc2c(c1)OCCO2 | 0.02 | -0.3
COc1cccc2oc3cc(C#Cc4ccccn4)ccc3c(=O)c12 | 1.4 | -2.7
COc1ccc(C2C(C#N)=C(N)Oc3c2ccc2cccnc32)cc1OC (configuration not stated) | 0.97 | 0.36
CC1(C)Oc2ccc(C(=O)Nc3ccccc3F)cc2N(CC(=O)N2CCOCC2)C1=O | 1 | 0.18

The whole of this part, from the start:
SMILES | KCNQ2 pot | KCNQ2 pot baseline
COc1cccc(/C=C/C(=O)c2c(O)cc(C)oc2=O)c1O | 1.1 | -0.06
O=C(CSc1ccccn1)N/N=C/c1cc([N+](=O)[O-])ccc1O | 1.4 | -0.4
O=C(/C=C/NNC(=O)c1ccccc1)c1ccc([N+](=O)[O-])cc1 | 0.92 | -1.4
COc1cc2nc(Nc3ccc(F)cc3)nc(N)c2cc1OC | 0.07 | -4.3
Cc1ccccc1NC(=O)c1nc2nccc(C)n2n1 | 1.8 | -0.85
O=C(Cn1nc(Cc2ccncc2)c2ccccc2c1=O)Nc1cccnc1Cl | 0.02 | 1.5
CC1=NNC(=O)C1CCC(=O)N/N=C/c1ccc(Cl)cc1Cl (configuration not stated) | 1.4 | -2.1
Cc1nc2ncnn2c(C)c1CCC(=O)N1CC(C)CC(C)C1 (configuration not stated) | 0.07 | -0.08
COc1ccc(NS(=O)(=O)c2coc(C(N)=O)c2)cc1Cl | 0.96 | 0.39
COc1cc(NC(=S)N2CCN(C)CC2)c(OC)cc1Cl | 0.43 | 2.2
O=C(Nc1ccc(Oc2cccnc2)cc1)C1CCN(Cc2ccc(F)cc2)CC1 | 1.1 | -0.53
Cc1ccsc1C(=O)Nc1ccc(F)c([N+](=O)[O-])c1 | 0.52 | 0.78
CCn1c(COc2ccc(=O)n(-c3ccccc3)n2)nnc1SC | 0.54 | -0.21
Cc1ccc(-c2nc(CS(=O)(=O)CC(=O)NCCCN3CCN(C)CC3)c(C)o2)cc1 | 0.75 | 1
O=C(Nc1ccc(S(=O)(=O)N2CCCC2)cc1)c1cc(=O)c2ccccc2o1 | 0.69 | 1.6
O=C(COC(=O)Cc1ccccc1F)Nc1ccc2c(c1)OCCO2 | 0.02 | -0.3
COc1cccc2oc3cc(C#Cc4ccccn4)ccc3c(=O)c12 | 1.4 | -2.7
COc1ccc(C2C(C#N)=C(N)Oc3c2ccc2cccnc32)cc1OC (configuration not stated) | 0.97 | 0.36
CC1(C)Oc2ccc(C(=O)Nc3ccccc3F)cc2N(CC(=O)N2CCOCC2)C1=O | 1 | 0.18
CC(C)(C)c1ccc(C(=O)N/C(=C\c2ccco2)C(=O)Nc2ccccc2C(=O)O)cc1 | 0.49 | -0.05
Cc1c(-n2c(O)c(C3=c4ccccc4=NC3=O)sc2=S)c(=O)n(-c2ccccc2)n1C | 0.07 | -0.9
CCOc1ccccc1NC(=O)CCn1cccc1 | 0.07 | -0.92
COc1ccc(OC)c(/C=N/NC(=O)CC(=O)NC2CCCCC2)c1 | 0.85 | 0.3
Cc1cc(Cl)ccc1OCCCC(=O)Nc1cccc(-n2cnnn2)c1 | 0.97 | 0.33
CC1=C(C(=O)OCc2ccc(C)cc2)C(c2ccc(O)c([N+](=O)[O-])c2)NC(=O)N1 (configuration not stated) | 0.01 | 0.89
CC(C)C(Nc1ncnc2c1oc1ccccc12)C(=O)O (configuration not stated) | 1.7 | -0.21
COC(=O)c1sccc1NC(=O)c1ccc(C)cc1 | 2 | 0.02
COC(=O)c1c(C(=O)OC)c(-c2ccc(C)cc2)n2c1CS(=O)C2 (configuration not stated) | 0.45 | 0.7
Cc1cccc(NC(=O)NCC(c2cccnc2)N2CCOCC2)c1 (configuration not stated) | 0.02 | 1
CCC(C)NC(=O)c1n[nH]c(=O)c2ccccc12 (configuration not stated) | 0.7 | 0.77
Cc1ccc(-c2nnn(CC(=O)N(Cc3cccs3)C(C(=O)NC3CCCC3)c3ccco3)n2)o1 (configuration not stated) | 0.06 | -1.8
Cc1ccc(S(=O)(=O)Oc2ccc(C3C4=C(CCCC4=O)OC4=C3C(=O)CCC4)cc2)cc1 | 0.52 | 0
CCc1ccc(CCC(=O)Nc2ccc(S(N)(=O)=O)cc2)o1 | 0.77 | 0.12
COc1ccc(/C=C/C(=O)NCc2cnn(C)c2C)cc1COc1ccc(Br)cc1 | 0.53 | -1.8
Cc1sc2ccccc2[n+]1CC(=O)O | 1.9 | -1.8
CC1(C)CC2CC(C)(CN2S(=O)(=O)c2cccc(N)c2)C1 (configuration not stated) | 0.73 | 0.81
CN(c1ccc([N+](=O)[O-])cc1C(N)=O)C1CCCCC1 | 0.28 | 1
C[C@@H](C(=O)NCc1ccccc1)N1C(=O)C2CC=CCC2C1=O (some centres not stated) | 2.1 | 2.3
CCN1CCCC1CNC(=O)CN1C(=O)COc2ccc(C)cc21 (configuration not stated) | 1.9 | -0.95
O=C(CNC(=O)c1ccccc1)Nc1cccc(C(F)(F)F)c1 | 1.4 | 0
COc1ccc(N(C(=O)c2snc(C(N)=O)c2N)C(C(=O)NCc2ccccc2)c2ccc(O)cc2)cc1 (configuration not stated) | 1.5 | 0.2
O=C(COc1cccc(-n2cnnn2)c1)Nc1ccccc1 | 0.26 | 0.55
CCOC(=O)c1cn(CC(=O)Nc2ccc(C)cc2)nn1 | 0.23 | -0.94
Cc1cc(N2CCC(C)CC2)nc(-n2nc(C)cc2C)n1 | 0.83 | 1.8
Nc1cc(-c2ccccc2)nn1Cc1ccccc1 | 0.09 | 0.39
CN(C)S(=O)(=O)c1ccc(C(=O)NCc2nnc(SCC(=O)N3CCCC3)o2)cc1 | 0.01 | -0.45
O=C(O)c1cc(-c2c[nH]c3ccccc23)nc2cc3ccccc3cc12 | 0.01 | -1.2
CCN(CC)CCCNc1nc2cc(OC)c(OC)cc2c2nc(-c3cccnc3)nn12 | 0.48 | -0.42
CCC(=O)NC(C)c1nc2ccccc2n1C (configuration not stated) | 2 | -0.09
CC(C)NS(=O)(=O)c1ccc(OCC(N)=O)c(Cl)c1 | 1.2 | 1.8
The list continues.
SMILES | KCNQ2 pot | KCNQ2 pot baseline
Cc1cc(NCCNC2=CC(=O)CCC2)nc2ccccc12 | 0.99 | 0.36
CS(=O)(=O)N(CC(=O)NCCSCc1ccccc1)c1ccc2c(c1)OCO2 | 0.66 | 0.79
CCCCOc1ccc(C(=O)NCCCC(=O)N2CCCCC2)cc1 | 1.6 | -1.2
COc1ccccc1NC(=S)NCC1CCCO1 (configuration not stated) | 0.26 | 0.22
COc1ccc(C(CC(=O)Nc2ncccc2C)N2Cc3ccccc3C2=O)cc1OC (configuration not stated) | 0.8 | 0.04
O=C(CC1CC2CCC1C2)OCC(=O)c1c[nH]c2ccccc12 (configuration not stated) | 1.2 | -0.99
CC(C)CC(=O)NC(=S)Nc1ccccc1C(=O)Nc1ccccc1 | 0.31 | -2
Cc1ccc(C)c(S(=O)(=O)N2CCCOC2CNC(=O)C(=O)NCc2ccccn2)c1 (configuration not stated) | 1.6 | -0.14
COc1ccccc1CCC(=O)OCC(=O)Nc1cccc(S(=O)(=O)N2CCOCC2)c1 | 0.29 | 2.3
CSc1cccc(NS(=O)(=O)c2cccs2)c1 | 0.97 | 0.01
C=CCc1c(C)nc2c(C(=O)O)cnn2c1C | 0.21 | 1.1
COc1ccc(CNC(=O)CCC(=O)Nc2nnc(CC(C)C)s2)cc1 | 0.17 | -0.62
NS(=O)(=O)c1ccc2nc(NC(=O)C3CCCO3)sc2c1 (configuration not stated) | 0.11 | -1.8
COC(=O)C1=NN(C(=O)c2cccc(Br)c2)C(O)(c2ccc(Cl)cc2)C1 (configuration not stated) | 16* | 0.21*
O=C(c1ccc(CS(=O)(=O)Cc2ccccc2)cc1)N1CCCCC1 | 0.18 | 1.2
C#CCOCCOCCOCCNc1nc(N2CCN(C(=O)[C@H](C)n3cc(CCCN=C(N)N)nn3)CC2)nc(N2CCN(C(=O)[C@H](Cc3ccc(O)cc3)n3cc(CCO)nn3)CC2)n1 | 0.88 | 1
O=C(Oc1ccccc1C(=S)N1CCOCC1)c1cccc([N+](=O)[O-])c1 | 0.06 | 0.05
O=C(/C=C/c1ccco1)c1ccc(O)cc1 | 0.15 | 0.19
COC(C[C@@H]1O[C@H]1[C@H](O)COCc1ccccc1)OC | 0.39 | -2
CCn1c(SCc2ccc(OC)cc2)nnc1-c1ccncc1 | 0.02 | -1.6
COc1ccc(C(C)NC(=O)C23CC4CC(CC(C4)C2)C3)cc1 (configuration not stated) | 1.7 | 1.4
O=C1Nc2ccc(F)cc2C12OCCO2 | 2 | -3.4
Cc1ccc(CSc2nnc3nc(C)cc(C)n23)cc1 | 2.3 | -0.85
O=c1c2[nH]c3cccc(Cl)c3c2ncn1Cc1ccncc1 | 0.87 | 0.4
O=C(NCc1cccs1)C1CC(=O)N(C2CCCC2)C1 (configuration not stated) | 0.55 | -0.87
COCC(C)n1c(C)cc(C(=O)COC(=O)CN=C2NS(=O)(=O)c3ccccc32)c1C (configuration not stated) | 2.5 | -1.4
CCOCCCn1c(=S)[nH]c2cc(C(=O)N3CCOCC3)ccc2c1=O | 0.51 | -1
CC1CCCCC1NC(=O)COc1ccc(-n2cnnn2)cc1 (configuration not stated) | 0.2 | -0.67
CCC(=O)c1ccc(N2CCN(C(=O)c3cccc(F)c3)CC2)c(F)c1 | 0.67 | -0.42
COc1ccc(CCNC(=O)c2cc(S(=O)(=O)N(C)C)ccc2N2CCCC2)cc1 | 0.07 | -0.17
Cc1cnc(C(=O)N2CCCC(N3CCN(c4ccccc4F)CC3)C2)cn1 (configuration not stated) | 1.5 | -2
COc1ccccc1OCC(=O)OCC(=O)Nc1sccc1C(N)=O | 1.4 | -0.61
CCc1ccc(OCC(=O)N2CCc3ccccc32)cc1 | 0.84 | 0.52
Cc1ccnc(NS(=O)(=O)Cc2ccccc2)c1 | 0.18 | 2.2
Cc1cc(/C([O-])=C(/C(=S)Nc2ccc(F)cc2)[n+]2ccccc2)c(C)n1-c1ccc(F)cc1 | 1.8 | 1.5
CC(=O)NC(=O)Nc1sc(=S)n(C)c1C | 0.28 | 0.84
COc1ccccc1NC(C)=O | 0.82 | 0.23
CC(=O)c1ccccc1NC(=O)CSc1nnc2ccccn12 | 0.06 | -0.96
O=C(c1ccccc1Cc1ccccc1)N1CCN(S(=O)(=O)c2ccccc2)CC1 | 0.55 | -0.66
Cc1nc2ccc(NC(=O)N3CCC(c4ccccc4)C3)cc2nc1C (configuration not stated) | 0.2 | 0.13
Cc1nnc(NC(=O)c2oc3c(ccc4ccccc43)c2C)s1 | 1.4 | 1.4
CCOC(=O)c1c(CN2CCN(c3ccccc3)CC2)oc2ccc(O)cc12 | 0.08 | 1.6
COc1ccc(/C=C/C(=O)c2cc(Br)ccc2O)cc1OC | 0.7 | -0.73
CN(C)/C=C/C(=O)c1ccccc1F | 0.32 | -0.06
CCOC(=O)C1CCN(S(=O)(=O)c2ccc(OC)c(Cl)c2Cl)CC1 | 0.05 | -1.2
COc1ccc(CN2CCN(C(=O)CC(C)C)CC2)c(OC)c1OC | 1.3 | -1.4

Not all compounds are listed; rates above refer to the full screens.
